A488 fluor = A488 region autofluorescence; compound autofluorescence, A488 spectral region, dye equivalency; stronger effect = higher value; max dye equivalency, M; 59,000 tested, 0.1% active; AID 591; active = above 10 nM dye equivalent; inconclusive = 1 to 10 nM; inactive = 1 nM or less; about half of its hits are not listed in these tables;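 further: highest value over a series up to 38 µM; compound alone in buffer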
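Spectroscopic profiling in the A488 region: compounds in pH 8.0 Tris (100 mM), 15 min RT, CCD imaging with 480 nm excitation and 540 nm emission; responses normalized against A488 dye standards.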
Resorufin fluor = compound fluoresces in the resorufin spectral region | Compound fluorescence, resorufin region 547/598 nm, buffer; stronger effect = higher value | max dye-equivalent concentration, M | 59,000 tested, 0.04% active; active = above 10 nM dye equivalent; inconclusive = 1 to 10 nM; inactive = 1 nM or less; a few of its hits are not listed in these tables; further: highest value over a series up to 38 µM
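Compounds in 100 mM Tris, pH 8.0, incubated 15 min at room temperature, then fluorescence read at 547 nm excitation/598 nm emission. Signal converted to dye-equivalent concentration via an on-plate six-point resorufin standard curve, per compound concentration.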
A647 fluor = A647 region autofluorescence | max dye-equivalent concentration, M | AID 592 | 59,000 tested, under 10 active | Compound fluorescence, A647 channel (570/671 nm), Tris buffer; active means above 1 µM dye equivalent; inconclusive means 0.1 to 1 µM; inactive means 0.1 µM or less;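 further: values scaled relative to a standard on each plate; highest value over a series up to 38 µM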
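Spectral profiling of library compounds in pH 8.0 Tris: 15 min room-temperature incubation, single ex/em pair (570/671 nm), response normalized to Alexa 647 equivalents.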
TSHR ag = activates the human thyroid stimulating hormone receptor | P16473 | HEK293-CNG-TSHR cells (CNG channel as cAMP sensor), membrane potential dye, cAMP | Potency, µM (titrated, usually from 57.1 µM), inactives show top-dose activation, usual class: activators | 73,000 tested, 0.48% active | AID 926; active = well fitted activation curve of enough size with the parental cells flat; inconclusive = any curve in the parental cells; inactive = parental cells flat and receptor cells flat or falling; further: potency means the concentration at half of the fitted maximal effect; % of control where 0% means no effect; weak receptor curves with flat parental cells got no call and are not listed
Target sequence (P16473 whole entry, looked up): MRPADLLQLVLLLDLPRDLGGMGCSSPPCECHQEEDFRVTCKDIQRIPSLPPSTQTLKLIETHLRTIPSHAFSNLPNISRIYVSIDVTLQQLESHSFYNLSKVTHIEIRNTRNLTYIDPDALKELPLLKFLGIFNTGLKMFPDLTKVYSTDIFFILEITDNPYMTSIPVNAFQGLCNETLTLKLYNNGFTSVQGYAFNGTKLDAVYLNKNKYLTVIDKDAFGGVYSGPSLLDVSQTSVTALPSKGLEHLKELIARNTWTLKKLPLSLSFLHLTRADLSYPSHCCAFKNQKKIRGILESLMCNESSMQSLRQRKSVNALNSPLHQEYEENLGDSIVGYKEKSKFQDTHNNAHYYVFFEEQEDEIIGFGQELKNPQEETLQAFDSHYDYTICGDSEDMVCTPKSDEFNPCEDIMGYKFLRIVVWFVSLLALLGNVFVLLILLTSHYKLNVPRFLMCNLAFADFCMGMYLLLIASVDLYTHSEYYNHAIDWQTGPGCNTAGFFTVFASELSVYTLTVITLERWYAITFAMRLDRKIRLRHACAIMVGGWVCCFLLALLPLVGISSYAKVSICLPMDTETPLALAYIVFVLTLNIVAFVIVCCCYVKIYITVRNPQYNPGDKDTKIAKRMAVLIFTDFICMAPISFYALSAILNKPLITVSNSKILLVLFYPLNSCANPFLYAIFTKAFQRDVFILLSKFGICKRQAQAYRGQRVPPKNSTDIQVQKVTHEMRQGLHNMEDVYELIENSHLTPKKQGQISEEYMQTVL
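HEK 293 cells stably expressing TSHR and a cAMP-gated CNG channel; parental CNG-only cells as counterscreen. Cells preloaded 60 min with membrane potential dye plus 100 uM RO 20-1724, then compound 30 min; fluorescence read at 590 nm.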
AID923 = qHTS Assay for Allosteric/Competitive Inhibitors of Caspase-1: Spectroscopic Profiling in AFC Spectral Region | compound fluorescence, AFC spectral region (405/520 nm); almost no hit is shown here | Potency, µM (highest dose often 57.5 µM), without a hit: at the highest dose fluorescence increase, hits mostly activators | 75,000 tested, 1.1% active | AID 923, 2007; active means well fitted activation curve with a large enough effect; inconclusive means small, poorly fitted or top-dose-only effect;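 further: potency means the concentration at half of the fitted maximal effect; 0% is about no effect; scaled to a free AFC standard on each plate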
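Compound autofluorescence profiled at 405 nm ex/520 nm em during kinetic caspase 1 run (50 nM enzyme, 5 uM Ac-WEHD-AFC, HEPES pH 7.5, 10 mM DTT). Titration up to 57 uM; baseline from regression intercept, normalized to AFC standard curve.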
Numbers without * were called inactive; i = inactive; ? = inconclusive; nt = not tested or not shown; & = joins results of further samples; [ ] = remark or other dose.

Compound	TSHR ag	A647 fluor	AID923	Resorufin fluor	A488 fluor
CC(C)C(NC(=O)OCc1ccccc1)C(=O)OCC(=O)N1CCCCC1 (centres undefined)	1%	1e-09	-1.7%	i	i
CC(C)(C)OC(=O)NCc1nc(N)n[nH]1	-4%	nt	-2.5%	nt	nt
Cc1cc(C)cc(N(CCC#N)C(=O)CSc2nc3nc(C)cc(C)n3n2)c1	5%	6.9e-09	0.1%	i	i
CCOC(=O)c1cc(-c2nnc(-c3ccc(Cl)cc3)o2)c(C)nc1C	0%	nt	-1.9%	nt	nt
COc1cc(C(=O)Nc2cccc(-c3nc4ncccc4o3)c2C)cc(OC)c1OC	1%	2.1e-08	-0.9%	i	i
CCOC(=O)c1cc2c(n(-c3ccc(C)cc3)c1=O)CCCC2=O	3%	2.1e-08	-0.7%	i	i
CCOc1cc(C#N)c(NC(=O)c2cccnc2)cc1OCC	1%	1e-09	1.0%	i	i
CC1CCN(c2nc3ccccc3nc2C(C#N)S(=O)(=O)c2ccccc2)CC1 (centres undefined)	1%	nt	11%	nt	nt
CCOC(=O)Cc1csc(SCc2nc3ccccc3c(=O)[nH]2)n1	1%	5.9e-09	2.3%	i	i
Cc1ccc(C)o1	1%	nt	0.2%	nt	nt
CCOC(=O)C(C)Oc1cccc2c(=O)n(CC(=O)N3CCc4ccccc43)ccc12 (centres undefined)	8%	nt	-2.1%	nt	nt
O=C(NC1(C(=O)NC2CCCC2)CCCCC1)c1ccc2c(c1)OCO2	12%	6e-09	0.8%	i	i
O=C(c1ccco1)N1CCC2(CCCN(c3ccccn3)C2)CC1	?	1e-09	1.3%	i	i
C=C1C(C(=O)N2CCN(C)CC2)C1C(=O)N1CCN(C)CC1 (centres undefined)	-4%	1e-09	2.6%	i	i
CC(=O)NCCCc1c[nH]c2ccc(Cl)cc12	-3%	1.5e-08	1.2%	i	i
O=S(=O)(NC1CCCC1)c1ccc(S(=O)(=O)NC2CCCC2)cc1	-3%	3.1e-08	-1.3%	i	i
Cc1ccc(C(=O)Nc2ccc(Cl)cn2)cc1S(=O)(=O)N1CCOCC1	-7%	nt	0.7%	nt	nt
Cc1nc(-c2coc3cc(OCC(=O)O)ccc3c2=O)cs1	nt	3.4e-09	nt	i	i
CC(=O)C1=C(O)C(=O)N(Cc2cccnc2)C1c1ccccc1Cl (centres undefined)	nt	2.6e-09	nt	i	i
CCN(Cc1ccccc1)C(=O)CCc1nc(-c2ccc(C)cc2)no1	?	1.2e-08	-1.5%	i	i
CCCCCC1=C2CNC(Cc3ccccc3)(C(=O)OC)C=C2C(C)C1=O (centres undefined)	?	nt	7.5%	nt	nt
CC(C)COC(=O)N1CC(O)CC1C(=O)O (centres undefined)	3%	5.1e-08	2.3%	i	i
O=C(CCn1c(=O)sc2ccccc21)NC1=NCCS1	1%	3.1e-08	-0.6%	i	i
O=C(Nc1ccc2c(c1)OCO2)[C@@H]1[C@@H]2C(=O)N(C3CCCCC3)C(=O)[C@@H]2C2c3ccccc3C=CN21 (some centres undefined)	-12%	1e-09	7.6%	i	i
CC(=O)N1C2(C=CC1(C)C(=O)NCCN1CCOCC1)CCCCC2 (centres undefined)	0%	nt	-1.0%	nt	nt
O=S(=O)(NCc1cccnc1)c1ccc(Cl)c(Cl)c1	-6%	nt	-1.8%	nt	nt
CS(=O)(=O)N(CCc1ccccc1)CC(=O)NCc1ccco1	4%	3.5e-08	0.3%	i	i
CCCCOC(=O)C1=C(C)NC2=C(C(=O)CCC2)C1c1cc(OC)ccc1OC (centres undefined)	-8%[11.4 µM]	3.7e-08	8.4%	i	i
O=C(Cn1cnc2c(cnn2-c2ccccc2)c1=O)N1CCN(c2ccc(F)cc2)CC1	0%	2.8e-08	1.0%	i	i
Cc1cc(O)c(C(C)C)cc1N=C1CSC(=O)N1	nt	1e-09	nt	i	i
CC1CCc2nn(CC(=O)NCCCN3CCCCC3)cc2C1 (centres undefined)	9%	nt	3.4%	nt	nt
CCc1nnc(NC(=O)COC(=O)CN2C(=O)c3ccccc3C2=O)s1	0%	3.3e-09	-1.7%	i	i
FC(F)(F)c1ccccc1-c1cncnc1Nc1ccccc1	22%	1.5e-08	-1.3%	i	i
CC1(C)CC(=NO)CC(C)(C)N1	1%	1e-09	-0.9%	i	i
Cc1cccc(C)c1NC(=O)CSc1nnc([C@@H]2CCCN2C(=O)OC(C)(C)C)o1	11%	2e-08	-0.4%	i	i
CC1CCN(CC(O)COC2CCC(C(C)(C)C)CC2)CC1 (centres undefined)	nt	8.2e-09	-1.4%	i	i

Entries of single compounds, quoted from the list:
Record of `CCOC(=O)c1cc2c(n(-c3ccc(C)cc3)c1=O)CCCC2=O` : TSHR ag = 3%; A647 fluor = 2.1e-08; AID923 = -0.7%; Resorufin fluor = i; A488 fluor = i
Record of `O=C(Nc1ccc2c(c1)OCO2)[C@@H]1[C@@H]2C(=O)N(C3CCCCC3)C(=O)[C@@H]2C2c3ccccc3C=CN21` (some centres undefined) : TSHR ag = -12%; A647 fluor = 1e-09; AID923 = 7.6%; Resorufin fluor = i; A488 fluor = i

Continuation:
Compound	TSHR ag	A647 fluor	AID923	Resorufin fluor	A488 fluor
O=C(NCC1CCCO1)c1ccc(NC(=O)C2CCCCC2C(=O)O)cc1 (centres undefined)	-11%	1.2e-08	-2.7%	i	i
CCN(CC)C(=O)Sc1cccc2cccnc12	-2%	1e-09	-1.0%	i	i
CN(C)c1ccc(C(=C2C=CC(=[N+](C)C)C=C2)c2ccc(N(C)C)cc2)cc1	?	nt	-1.5%&1.3%	nt	nt
Cc1[nH]c(C(=O)N2CCCCC2)c(C)c1C(=O)NC1CCCCC1	?	nt	0.5%	nt	nt
COc1ccc(CCNc2nc(-c3sc(N)nc3C)cs2)cc1OC	-8%	nt	1.6%	nt	nt
O=C(CN(CCc1ccccc1)C(=O)CNS(=O)(=O)c1ccc(F)cc1)NCc1ccco1	-3%	1e-09	0.3%	i	i
N#CCCN1CCN(C(=S)c2ccc(-c3cc(Cl)ccc3Cl)o2)CC1	?	3.3e-08	1.4%	i	i
CCn1c(C(=O)N2CCCC(C(=O)NCCc3ccc(C)cc3)C2)cc2sccc21 (centres undefined)	?	3.2e-08	-0.2%	i	i
COc1ccc(C(C)N2CC34C=CC(O3)C(C(=O)O)C4C2=O)cc1 (centres undefined)	-4%	1.9e-09	0.5%	i	i
COCC(=O)NC1CCN(S(=O)(=O)c2ccc(C(=O)O)cc2)CC1	-1%	1e-09	-1.1%	i	i
N#Cc1c(NC(NC(=O)c2ccco2)C(=O)c2ccccc2)sc2c1CCCC2 (centres undefined)	15%	nt	0.9%	nt	nt
CCc1ccccc1NC(=O)Cn1nnc(-c2cccs2)n1	-9%	1e-09	-0.3%	i	i
C=CCn1c(SCC(=O)Nc2ccc(C)cc2C)nnc1-c1cccnc1	5%	1e-09	-0.6%	i	i
COc1ccc(N2CCN(C(=O)CCNS(=O)(=O)c3ccc4c(c3)CCC(=O)N4)CC2)cc1	-6%	3.5e-08	-0.2%	i	i
COc1ccc(OC)c(C2C(C(=O)c3cccs3)=C(O)C(=O)N2c2cc(C)on2)c1 (centres undefined)	21%	1e-09	-1.0%	i	i
Clc1ncn(C23CC4CC(CC(C4)C2)C3)n1	0%	3.5e-08	-2.1%	i	i
Cc1cc(=O)oc(C)c1C(=O)N1CCN(Cc2ccc3c(c2)OCO3)CC1	nt	1.2e-08	nt	i	i
CCN(CC)CCCn1c(-c2ccccc2)nc2c(N3CCOCC3)nc(C)nc21	15%	nt	0.2%	nt	nt
COC(=O)c1cc(OC)c(OC)cc1N=CC1=C(O)CC(C)(C)CC1=O	-5%	nt	2.1%	nt	nt
COC(=O)[C@@]1(Cc2ccccc2)[C@H]2c3cc(C(=O)N4CCCC4)n(CCO)c3C[C@H]2CN1C(=O)c1ccccc1	11%	nt	-0.1%	nt	nt
CS(=O)(=O)NCc1ccc(C(=O)NC2CCCCC2)cc1	11%	8.2e-09	0.4%	i	i
COCC(=O)N1CCC(n2nnc3cc(F)ccc32)CC1	-3%	3e-09	-1.4%	i	i
CCC(C(=O)O)n1nnc(-c2ccc(-c3ccc(OC)cc3)cc2)n1 (centres undefined)	9%	4.4e-09	-1.0%	i	i
O=c1cc(CSc2nnnn2-c2ccccc2)nc2scc(-c3ccccc3)n12	16%	1.9e-09	1.9%	i	i
Cc1noc(C)c1C(=O)N1CCC2(CCN(C(=O)NC(C)C)CC2)CC1	22%	8.3e-09	1.5%	i	i
O/N=C1\CCCc2nnc3c(c21)CCCC3	14%[11.4 µM]	nt	-0.4%	nt	nt
COc1ccc(COC(=O)N/N=C2/C[C@@H](O)[C@@H](O)[C@@H]3[C@@H]4C(=O)N([C@@H](C)c5ccccc5)C(=O)[C@H]4CC[C@@H]23)cc1	0%[11.4 µM]	nt	0.1%[11.5 µM]	nt	nt
COc1ccc(-c2noc(CCC(=O)NCc3cc(Br)ccc3OC)n2)cc1	?	1e-09	1.6%	i	i
c1cnc(NC2C3CC4CC(C3)CC2C4)nc1 (centres undefined)	9%	4.1e-08	0.5%	i	i
Cc1cc(C)c(S(=O)(=O)NCc2cn3c(C)csc3n2)cc1C	4%[11.4 µM]	1.9e-08	-0.2%	i	i
Cc1ccccc1Cn1ccc(NC(=O)c2cc3nc(-c4ccco4)cc(C(F)(F)F)n3n2)n1	-9%	1.1e-08	16%	i	i
Cc1ccc(-c2nnn(Cc3nc(N)nc(N4CCOCC4)n3)n2)cc1	6%[11.4 µM]	2.1e-08	-1.0%	i	i
COc1cc(OC)c(-c2nn3c(-c4cccnc4)nnc3s2)cc1OC	-4%	1e-09	1.4%	i	i
COc1ccc(N2CCN(CCCNC(=O)C3(S(=O)(=O)c4ccc(Cl)cc4)CC3)CC2)cc1	-2%	1.2e-09	-0.1%	i	i
Cc1nn(Cc2ccccc2)c(C)c1C(=O)Nc1ccc(N2CCOCC2)cc1	nt	2.9e-09	0.1%	i	i
CCOC(=O)C1=C(N)OC2=C(C(=O)CCC2)C1c1ccccc1OCC (centres undefined)	22%	nt	3.4%	nt	nt
CC(CC(=O)NCc1ccccc1)C1CCCO1 (centres undefined)	-4%	8.1e-09	1.1%	i	i
CC(=O)Nc1ccc(S(=O)(=O)Nc2ccc(NC(=O)c3ccco3)cc2)cc1	-6%	7.5e-09	-0.8%	i	i
CCC1(c2ccccc2)NC(=O)N(CC(=O)Nc2ccc3c(c2)OCO3)C1=O (centres undefined)	-3%	3.4e-08	-0.7%	i	i
COc1ccc(S(=O)(=O)N[C@H](C(=O)N2CC[C@@]3(O)CCCC[C@H]3C2)c2ccccc2)cc1	?	1e-09	0.6%	i	i
COc1ccc(-c2c(C)nn3c(N4CCN(Cc5ccccc5)CC4)cc(C)nc23)cc1OC	?	nt	-3.3%	nt	nt
COCc1[nH]nc2c1C(c1cccc(OC)c1)C(C#N)=C(N)O2 (centres undefined)	nt	4.5e-09	nt	i	i

High-throughput results from PubChem BioAssay.

This is a subset. The share of hits here may be higher or lower than overall.
